# Source: PubChem BioAssay
# VACV mCherry inh: vaccinia inhibition (mCherry reporter) | Vaccinia virus mCherry reporter infection, fluorescence; about a quarter of the inactives have no number | Potency, µM (titrated, usually from 36.5 µM), without a hit: top-dose activity change, negative = inhibition, most hits filed as inhibitors | hit rate 0.63% among 310,000 | AID 720579; active = well fitted inhibition curve with a large enough effect; inconclusive = small, poorly fitted or top-dose-only effect; inactive = no such curve, though single readings can be large or run the other way; tested in A549 cells; also: nearly all actives have a fitted effect of over 35% in size; inactives centre near -10
# Vaccinia Venus: vaccinia inhibition (Venus reporter); Vaccinia virus Venus reporter expression, fluorescence; Potency, µM (doses to about 36.5 µM), without a hit: at the highest dose activity change, negative = inhibition, usual class: inhibitors; hit rate 0.46% among 330,000; AID 720580; active means well fitted inhibition curve with a large enough effect; inconclusive means small, poorly fitted or top-dose-only effect; inactive means no such curve, though single readings can be large or run the other way; tested in A549 cells; also: nearly all actives have a fitted effect of over 30% in size; inactives centre near -10
# The depositor's hits bear a star; i = inactive; ? = inconclusive; · = not tested or not shown; & = joins results of further samples; [ ] = remark or other dose. % is scaled to controls: 0 for no effect and ±100 for the full control effect; potency is read from the fitted curve at half-maximal effect.
# Each structure is followed by: VACV mCherry inh, Vaccinia Venus
COc1ccc([N+](=O)[O-])cc1NC(=O)c1ccc(CN(c2ccccc2)S(C)(=O)=O)cc1
 : -17%, -15%
COc1cccc(-n2c(-c3cccc(F)c3)nc3c(cnn3-c3ccc(C)cc3)c2=O)c1
 : -5%, -14%
O=C(NC1CCCCCC1)C1CCN(S(=O)(=O)c2ccc(F)cc2)CC1
 : i, 0%
COc1cccc(Cn2c(CNC(=O)CCc3ccccc3)nc3cccnc32)c1
 : -8%, -5%
O=C(Nc1ccc(Cl)cc1)/C(=C/c1cccc(O)c1)c1nc2ccccc2s1
 : 11µM*, 10µM*
CCCCc1nn2c(=O)cc(COC(=O)c3cccc(NC(=O)c4cccs4)c3)nc2s1
 : i, -17%
N#CC1=C(N)Oc2cc(O)ccc2C1c1cccs1 (stereo unspecified)
 : ·, -4%
CCC(CC)C(=O)Nc1ccc(OCc2cc(=O)n3ccc(C)cc3n2)cc1
 : -12%, 3%
COCCNCCCCOc1ccc(Br)cc1C
 : -14%, -8%
Cc1ccc(C(=O)OCC(=O)NCCNC(=O)COC(=O)c2ccc(C)s2)s1
 : -13%, -8%
Cc1ccc(P(=O)(O)c2ccc(C)cc2)cc1
 : ·, -6%
CCCCCc1c(C)nc(Nc2nc(C)c3cc(OC)ccc3n2)[nH]c1=O
 : -12%, -9%
O=C(COC(=O)c1cccs1)Nc1ccccc1
 : -4%, -14%
COc1ccc(-c2c(C)oc3c(CN4CCN(CCO)CC4)c(O)ccc3c2=O)cc1OC
 : -18%[1.46 µM], -11%
NC(=O)NC(=O)c1nccnc1C(=O)O
 : i, -8%
Cc1ccc(-c2nn(-c3ccccc3)cc2CO)cc1
 : ?, -23%
CCN(CC)CCN(C(=O)c1ccc2c(c1)CCCC2)c1nc2cc(OC)c(OC)cc2s1
 : ?, -10%
CC(C(=O)c1ccccc1)C(O)c1ccccn1 (stereo unspecified)
 : -6%, -1%
COc1ccc(Cc2nnc(NC(=O)C3CC(=O)N(c4ccccc4)C3)s2)cc1OC (stereo unspecified)
 : -17%, -9%
CC(C)[C@@H]1NC(=O)c2cc([N+](=O)[O-])cc(I)c2NCCC[C@@H](C(=O)NC(CC(=O)O)C(N)=O)NC(=O)[C@H](CO)NC1=O (stereo partly specified)
 : -13%, -14%

# Continued:
# Each structure is followed by: VACV mCherry inh, Vaccinia Venus
CCOC(=O)C1=C(c2ccccc2)Nc2ncnn2C1c1ccc(C(=O)O)cc1 (stereo unspecified)
 : -22%, -13%
CC(Oc1ccc2c(c1)oc(=O)c1ccccc12)C(=O)NC(Cc1c[nH]c2ccc(O)cc12)C(=O)O (stereo unspecified)
 : 0%, 3%
Cc1nn(CCOc2ccccc2Cl)c(C)c1[N+](=O)[O-]
 : i, -14%
COc1ccc(C)cc1NC(=O)COC(=O)c1ccccc1SCC(=O)N1CCCC1
 : -6%, -20%
COc1ccc(CN2C(=O)CC(C(=O)NCCc3ccc(S(N)(=O)=O)cc3)SC2=Nc2ccccc2)cc1 (stereo unspecified)
 : -26%, -24%
Cc1c(C(=O)NCc2ccc(F)cc2)c(-c2ccccc2)nn1-c1ccccc1
 : -25%, -13%
COCC1CCN(Cc2cn(Cc3ccccc3)nc2-c2cc3ccccc3o2)CC1
 : -24%, -19%
NC(=S)N=Nc1c(O)n(CCCl)c2ccc(Br)cc12
 : ?, ?
Cc1ccc(NC(=O)CCNC(=O)c2ccco2)cc1F
 : i, -10%
Cc1cc(C)c(C#N)c(SCC(=O)c2ccc(Cl)cc2Cl)n1
 : 0%, -3%
O=C(Nc1ccc(OC(F)(F)F)cc1)c1cc2ccccn2n1
 : -24%, -7%
Cc1ccc(C)c(CN2C(=O)c3ccccc3S(=O)(=O)c3ccc(C(=O)NCCc4ccc(Cl)cc4)cc32)c1
 : -8%, -8%
COc1cccc(NC(=S)C(C#N)=C2N(C)c3ccccc3N2C)c1
 : 0%, -3%
CCN(Cc1ccccc1)C(=O)CN(c1ccc(OC)cc1)S(=O)(=O)c1c(C)nn(C)c1C
 : -2%, -6%
Cc1nnc(NC(=O)CSc2nnc(Cc3ccccc3)n2Cc2ccccc2)s1
 : ·, 1%
COC(=O)C1=C(C)N=C2SC(C#N)=C(N)N2C1c1cc(OC)c(OC)c(OC)c1 (stereo unspecified)
 : ·, -3%
O=C(Nc1ccccc1Cl)NC1(C(=O)N2CCC(O)CC2)CCCCC1
 : -23%, 0%
O=C(Nc1cccc(N2CCC(NCc3cnn(-c4cccc(F)c4)c3)CC2)c1)c1ccncc1
 : -23%, -3%
CCOc1ccccc1NC(=O)c1nc(SCc2ccccc2F)ncc1Cl
 : 0%, 6%
CCOc1ccc(C(=O)CSc2nnc(C3CC3)n2C)cc1
 : i, -9%

# Four structures out of the list, arranged by formula weight, highest first:
# Each structure is followed by: VACV mCherry inh, Vaccinia Venus
O=C(Nc1cccc(N2CCC(NCc3cnn(-c4cccc(F)c4)c3)CC2)c1)c1ccncc1
 : -23%, -3%
COc1ccc(C)cc1NC(=O)COC(=O)c1ccccc1SCC(=O)N1CCCC1
 : -6%, -20%
NC(=S)N=Nc1c(O)n(CCCl)c2ccc(Br)cc12
 : ?, ?
Cc1nn(CCOc2ccccc2Cl)c(C)c1[N+](=O)[O-]
 : i, -14%

# Next part.
# Each structure is followed by: VACV mCherry inh, Vaccinia Venus
CCNC(=S)N(Cc1cc2cccc(C)c2[nH]c1=O)C1CCCC1
 : -5%, -14%
CCCn1nnc(NC(=O)c2cccc(Cl)c2)n1
 : ·, -9%
O=C(Cc1cccc(NC(=O)C2CCCN(C(=O)C3CCCC3)C2)c1)Nc1cccc(C(=O)N2CCOCC2)c1 (stereo unspecified)
 : i, -7%
CC(=O)c1ccc(OCCCC(=O)Nc2nnc(C3CC3)s2)cc1
 : -11%, 1%
C(C#CCN1CCOCC1)#CCN1CCOCC1
 : i, -7%
CCc1cc(C(=O)OC)c(NC(=O)C2CC(=O)NN2Cc2ccccc2)s1 (stereo unspecified)
 : -2%, -21%
CCCCn1c(N)c(N(CC(C)C)C(=O)CN2C(=O)NC3(CCC(C(C)(C)CC)CC3)C2=O)c(=O)[nH]c1=O (stereo unspecified)
 : -4%, -14%
CCN(CC)C(=O)c1cccc(NC(=O)CCc2nc3sc4c(c3c(=O)[nH]2)CCCC4)c1
 : -30%, -24%
Cc1cc(C)cc(OCc2nnc(SCC(=O)N3CCCCC3)o2)c1
 : 34%[activator], -7%
COc1cc2c(cc1OC)CN(C(=S)Nc1cccc(Cl)c1C)CC2
 : -18%, -28%
O=C(/C=C/c1ccco1)NC(=S)Nc1nc(-c2ccc3ccccc3c2)cs1
 : -5%, -5%
CC(Sc1nnc(Cc2ccc([N+](=O)[O-])cc2)o1)C(N)=O (stereo unspecified)
 : i, -8%
COc1ccc(CN(C)CC2CCCN(CCc3ccccc3C)C2)cc1O (stereo unspecified)
 : -13%, -26%
O=C(CSc1nnc(NC(=O)c2ccccc2F)s1)NC1CCCC1
 : -12%, 5%
Cc1c2cnn(-c3ccccc3)c(=O)c2c(C)n1CC(=O)N1CCN(c2ccc(F)cc2)CC1
 : -17%, -2%
COc1ccc([N+](=O)[O-])cc1NC(=O)C(C)Sc1nc(C)c(C)c(C)n1 (stereo unspecified)
 : -2%, -10%
CC(C)Cn1c(=O)c2ccccc2n2c(-c3cccc(Cl)c3)nnc12
 : -7%, -6%
O=C1CCC(=O)N1c1ccc(NCCc2ccccc2F)c([N+](=O)[O-])c1
 : -28%, -1%
O=C(NC(c1ccccc1)c1cnccn1)C1CCN(CCCOc2ccccc2)CC1 (stereo unspecified)
 : 2%, -12%
CC1(C)Oc2ccc3ccc(=O)oc3c2/C(=C/Nc2ccccc2)C1=O
 : -1%, 7%

# Among those listed so far, these contain bromine:
# Each structure is followed by: VACV mCherry inh, Vaccinia Venus
COCCNCCCCOc1ccc(Br)cc1C
 : -14%, -8%
NC(=S)N=Nc1c(O)n(CCCl)c2ccc(Br)cc12
 : ?, ?

# Other records.
# Each structure is followed by: VACV mCherry inh, Vaccinia Venus
O=C(CCCOc1ccccc1)N1CCCCC1
 : -7%, -11%
COc1cc(OC)c(NC(=O)CCCNC(=O)Cn2cnc3sc(C)c(C)c3c2=O)cc1Cl
 : -6%, 14%
Cc1ccccc1NN1C(=O)C=CC1=O
 : ·, 1%
CCNC(=S)Nc1ccc(Cc2ccncc2)cc1
 : i, -9%
Cc1ccc(C)c(OCCC(=O)Nc2cccc(S(=O)(=O)N3CCCC3)c2)c1
 : ?, -19%
OC(c1ccccc1)c1ncc(-c2ccc(Cl)cc2)[nH]1 (stereo unspecified)
 : -38%, ?
CN(C)S(=O)(=O)c1ccc(C(=O)Nc2nc(-c3cccs3)cs2)cc1
 : 13%, -20%
CC1=Nn2c(nnc2-c2cc(C)[nH]n2)SC1
 : ·, -22%
CC(C)(C)NC(=S)NC(C)(C)C
 : -8%, 4%
CC(C)NC(=O)N(C)C[C@@H]1OCc2cn(nn2)CCCC(=O)N([C@H](C)CO)C[C@H]1C
 : -11%, 5%
Nc1c(C(=O)O)ccc2c1C(=O)c1ccccc1C2=O
 : 3%, 226%[activator]
Cc1cc(C(=O)N2CCN(c3cccc(Cl)c3)CC2)c(C)o1
 : ?, ?
CC1=NN(c2ccccc2)C(=O)C1C=Nc1ccc(N(C)C)cc1 (stereo unspecified)
 : -3%, -2%
Cc1cc(C)nc(/N=C(\N)Nc2ccc(-c3ccccc3)cc2)n1
 : ?, ?
C=CCNC(=O)C1CC2Cn3c(nc4cc(C)c(C)cc43)C2N1C (stereo unspecified)
 : i, -15%
COc1ccc(-n2c(CCC(=O)O)ccc2-c2ccccc2)cc1
 : 6%, -3%&-4%
COCCn1c(SCC(=O)c2ccc(C)cc2C)nc2cc(C(=O)NC3CCCC3)ccc2c1=O
 : -8%, -5%
O=c1cc(-c2ccccc2)n2c(SCc3ccccc3Cl)nnc2[nH]1
 : i, -6%
CC(C(=O)OCC(=O)c1ccccc1)N1C(=O)c2ccccc2C1=O (stereo unspecified)
 : i, -5%
O=c1[nH]nc(Cc2ccc([N+](=O)[O-])cc2)c2ccccc12
 : -20%, -14%

# Following part
# Each structure is followed by: VACV mCherry inh, Vaccinia Venus
CCCN(C(=O)CSc1nnc(N)s1)c1c(N)n(Cc2ccccc2)c(=O)[nH]c1=O
 : -15%, -23%
Clc1ccc(-c2nc3nc4ccccc4nc3n2Cc2ccco2)cc1
 : -15%, -10%
Cc1[nH]n(-c2ccccc2)c(=O)c1C1(C(F)(F)F)C(=O)N(c2ccc(F)cc2)C2=C1C(=O)CC(C)(C)C2 (stereo unspecified)
 : -24%[1.46 µM], -19%
Cc1ccc(-c2c(C(=O)Nc3ccc(F)c(F)c3)oc(=O)c3ccccc23)cc1
 : 2%, -7%
C[C@H](CO)N1C[C@H](C)[C@@H](CN(C)C)OCc2cnnn2CCCC1=O
 : i, -12%
Cc1cc(NCc2ccccn2)ccc1Br
 : -9%, -6%
CCCNC(=O)Cn1nc(-c2ccc(OC)cc2)c2cnc3ccc(F)cc3c21
 : -11%, -4%
Cc1ccc(C(=O)NS(=O)(=O)c2ccc(N=NN(C)C)cc2)cc1
 : -4%, 2%
Cc1ccc(-c2cnc(NC(=O)c3cccc(Br)c3)s2)c(C)c1
 : i, -17%
CC(=O)NC(c1ccccc1)c1nc(-c2cccs2)cs1 (stereo unspecified)
 : i, -6%
O=C(CSc1nc(=O)n(CCCN2CCOCC2)c2c1CCCC2)Nc1ccccc1Cl
 : -4%, -26%
CC1CCN(S(=O)(=O)c2ccc3nc(Nc4cccc(C(F)(F)F)c4)ccc3c2)CC1
 : -9%[7.34 µM], -3%[7.34 µM]
CN1CCN(CCCNC(=O)c2cnn(-c3ccc(F)cc3)c2-n2cccc2)CC1
 : -1%, 3%
Cc1nn(CC(=O)Nc2ccccn2)c(C)c1Br
 : -14%, 1%
Cc1nc2c3cnn(-c4ccccc4)c3ncn2n1
 : -28%, -12%
Cc1ccc(N(CCC(=O)N2CCOCC2)S(=O)(=O)c2ccccc2)cc1
 : -9%, -14%
O=C(NC(NC(=S)Nc1cc(Cl)ccc1Cl)C(Cl)(Cl)Cl)c1ccco1 (stereo unspecified)
 : -3%, -11%
OCCN=c1cc(-c2ccccc2)oc2ccc(Cl)cc12
 : ·, 2%
O=[N+]([O-])c1cncc([N+](=O)[O-])c1Nc1ccccc1Cl
 : -27%, -16%
COc1ccc(-c2sc(Nc3ccc(F)c(F)c3F)nc2CCC(=O)NN)cc1
 : ?, -6%

# (cont.)
# Each structure is followed by: VACV mCherry inh, Vaccinia Venus
Cc1ccc(S(=O)(=O)N2CCC(NC(=O)OC(C)C)CC2)cc1
 : -16%, -2%
Cc1ccc(NC(=S)N2CCn3cccc3C2c2cccnc2)cc1 (stereo unspecified)
 : -20%, -9%
CCN(CC(=O)Nc1ccc(NC(C)=O)cc1)C(=O)c1ccc(=O)n(C)n1
 : -13%, 4%
O=C(CSc1ccc2nnc(CCNC(=O)c3ccccc3)n2n1)NCc1ccco1
 : -4%, 9%
CC(C)(C)C(=O)Cn1c(NCCCO)nc2ccccc21
 : ·, 13%
Cc1ccc(OC(=O)c2ccc3nc(C)sc3c2)cc1
 : i, 148%[activator]
O=C(CCC(=O)OCC(=O)c1ccccc1)Nc1cccc2cccnc12
 : i, -10%
CCOc1ccccc1NC(=O)COc1cccc2c(=O)n(CCOC)ccc12
 : ?, -22%
CC(=O)Nc1nc(C)c(CCCOc2ccc([N+](=O)[O-])cc2)c(=O)[nH]1
 : i, -18%
O=C(Cc1ccccc1)Oc1ccc(N2C(=O)C3CCCCC3C2=O)cc1 (stereo unspecified)
 : -14%, -16%
COc1cc(NC(=O)CN2C(=O)NC(C)(c3ccc(OC(F)F)cc3)C2=O)cc(OC)c1OC (stereo unspecified)
 : i, -7%
